Assay outcomes (PubChem)
T cruzi inh: T. cruzi replication inhibition; T. cruzi beta-gal in NIH3T3, luminescence, 90 h; inhibition, % (no concentration beside the values); hit rate 1.4% among 300,000; AID 1885;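 active means mean inhibition across valid replicates above about 55%, limit read from the data; inconclusive means mean below that limit but half or more replicates reach it; inactive means mean below it, under half of replicates reach it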;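 further: signal also drops with host cell toxicity which is not excluded here; 0% = plate median of DMSO wells and 100% = zero luminescence signal; higher percent means less beta-gal luminescence so fewer parasites; stock transfer was 50 nL into about 50 µL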
Calb FLC: affects C. albicans growth with fluconazole; C. albicans CaCi-2 (fluconazole-resistant clinical isolate) + fluconazole, Alamar Blue growth, 48 h; growth inhibition, % (concentration not given with the values); hit rate 0.57% among 300,000; AID 1979;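 active means most replicates above 75%; inconclusive means exactly half above 75%; inactive means most below 75%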;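 further: all wells also contain fluconazole at 8 µg/ml as a sub-toxic cotreatment; 0% = median of DMSO wells and 100% = median of geldanamycin control wells; wells of about 8 µL received 7.5 nL stock; the first replicate is given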
RanGTP-Imp inh: disruptors of Ran-importin-beta complex formation – biochemical, FRET, CFP-Ran, YFP-importin-beta, homogeneous, primary screen. inhibition, % (concentration not given with the values). cell-free CFP-Ran/YFP-importin-beta FRET ratio. hit rate 1.1% among 300,000;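 active means most replicates above 15%; inconclusive means exactly half above 15%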;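 further: 0% = DMSO wells and 100% = Ran loaded with GDP instead of GTP; wells of about 40 µL received 100 nL stock; the first replicate is given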
UCH37 inh: inhibitors of human deubiquitinating enzyme UCH37. Q9Y5K5. purified proteasome/UCH37, Ub-AMC cleavage fluorescence. inhibition, % (concentration not given with the values). hit rate 0.33% among 330,000. AID 588478;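 active means mean of two replicates above 20%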;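 further: 0% = compound-free wells with enzyme and 100% = wells lacking proteasome; stock transfer was 100 nL into about 20 µL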
Target sequence (Q9Y5K5 whole entry, looked up): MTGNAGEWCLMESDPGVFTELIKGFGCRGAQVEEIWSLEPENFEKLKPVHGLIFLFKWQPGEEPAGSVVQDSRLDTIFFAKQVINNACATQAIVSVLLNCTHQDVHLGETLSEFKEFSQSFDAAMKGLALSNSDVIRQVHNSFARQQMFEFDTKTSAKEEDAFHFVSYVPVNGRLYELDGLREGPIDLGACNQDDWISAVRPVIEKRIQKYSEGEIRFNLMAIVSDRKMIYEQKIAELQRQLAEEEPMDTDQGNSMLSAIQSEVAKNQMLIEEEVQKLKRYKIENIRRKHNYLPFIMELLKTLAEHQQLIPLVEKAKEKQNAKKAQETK
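assay system = human UCH37 enzyme supplied as purified proteasome complex | amount = proteasome at 0.15 nM in the dispensed enzyme solution | schedule = 30 min compound-proteasome preincubation then 25 min substrate reaction, room temperature | measured by = fluorescence, ex 355 nm, em 460 nm | benchmarks = no-proteasome wells (full inhibition) and compound-free wells (no inhibition)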
Bfl-1 A1 inh: inhibitors of the anti-apoptotic protein A1, read as caspase activation; MEF A1-2A-BIM cells, Caspase-Glo 3/7 luminescence, 3 h; percent of clofoctol response, vehicle zero; caspase activation, % (no concentration beside the values); hit rate 0.066% among 330,000; AID 2462;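 active means over half of replicate activation scores above 10%, or exactly half above 10 with the replicate mean above 10; inconclusive means replicate mean below 10 yet half the replicates above 10; inactive means over half of replicates below 10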;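 further: wells of about 30 µL received 50 nL stock; many hits fall short of the cut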
B2AR ag: activates human beta-2 adrenergic receptor causing internalization | Am2.2-beta2AR cells, FAP receptor internalization, flow cytometry; reference of the scale not given here | AID 504454 | hit rate 0.43% among 340,000 | response, % (concentration not given with the values);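 active means response above a set limit, near 3 SD of response in nonfluorescent compounds, cut at about 42% in these data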;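 further: stock transfer was 100 nL into about 11 µL; a reference agonist was the positive control; negative values mostly stem from fluorescent compounds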
Target sequence (P07550 whole entry, looked up): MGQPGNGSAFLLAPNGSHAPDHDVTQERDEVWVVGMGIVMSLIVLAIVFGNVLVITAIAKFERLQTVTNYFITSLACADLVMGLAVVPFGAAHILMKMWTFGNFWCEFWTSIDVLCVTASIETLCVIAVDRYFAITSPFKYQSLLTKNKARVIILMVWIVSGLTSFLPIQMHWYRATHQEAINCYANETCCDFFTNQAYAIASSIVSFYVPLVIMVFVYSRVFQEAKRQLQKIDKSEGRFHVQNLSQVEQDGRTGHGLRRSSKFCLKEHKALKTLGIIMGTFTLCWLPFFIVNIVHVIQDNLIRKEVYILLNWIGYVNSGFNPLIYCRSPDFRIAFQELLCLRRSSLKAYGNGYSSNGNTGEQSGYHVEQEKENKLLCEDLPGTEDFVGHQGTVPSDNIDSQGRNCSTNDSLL
Beta cell apopt: blocks beta cell apoptosis; INS-1E cytokine-induced death, ATP luminescence, 48 h; percent of positive-control rescue, neutral wells zero; protection from apoptosis, % (no concentration beside the values); hit rate 0.8% among 300,000; AID 435005;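 active means all replicates at 75% or more, or half of them and the mean; inconclusive means half reach 75% but not the mean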;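 further: 0% = cytokine-treated negative control wells and 100% = positive control rescue; higher means more ATP so stronger rescue from cytokine killing; wells of about 40 µL received 100 nL stock; the first replicate is given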
LANA-H2A inh: blocks KSHV LANA binding to histone H2A/H2B; cell-free LANA-H2A/H2B peptide, fluorescence polarization; inhibition, % (concentration not given with the values); hit rate 0.6% among 320,000; AID 2629; in the data active means inhibition mostly above about 10%, no sharp cut-off; inactive means mostly below about 6.7%;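 further: stock transfer was 7.5 nL into about 10 µL; 0% = median of vehicle wells and 100% = median of positive control wells; one replicate is shown; the record names a cut of 25% in any replicate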
Active calls of the source: *; i = inactive; u = inconclusive; x = no result given.

The line under a structure holds: T cruzi inh	Calb FLC	RanGTP-Imp inh	UCH37 inh	Bfl-1 A1 inh	B2AR ag	Beta cell apopt	LANA-H2A inh
COc1ccc(CC(=O)OCN2C(=O)c3ccccc3C2=O)cc1
    -5	3	1.7	0.9	-1.4	-6	-7	0.7
O=C(Cc1ccc(F)cc1)NCCc1ccc(F)cc1
    2	25	1.6	2.5	1.6	1	-6	-2.4
CCOc1ccc(NS(=O)(=O)c2ccc3c(c2)oc(=O)n3C)cc1
    -10	13	0.0	1.9	1.3	-14	6	-0.3
CC1=C(C#N)CCC(=O)N1Cc1ccc(C)cc1
    -14	-4	-6.7	6.3	0.8	5	-1	-3.5
O=C(Nc1cccnc1)c1cccc(S(=O)(=O)N2CCCCC2)c1
    9	22	4.6	-0.4	0.0	-9	-1	-8.3
Nc1ccc(C(=O)N/N=C/c2cn(Cc3ccccc3F)c3ccccc23)cc1
    -18	27	4.2	x	0.3	-4	5	-4.9
O=C(Cn1ccc2ccccc21)Nc1ccc2c(c1)OCO2
    12	29	-6.2	1.3	0.6	-3	x	2.7
CC(C)C(=O)n1nc(-c2cccnc2)nc1NCc1cccs1
    -13	28	4.4	3.9	u	-7	-9	1.1
CN(c1ccc(C(=O)NCc2ccccn2)cc1)S(C)(=O)=O
    -3	-7	-3.2	1.2	-0.5	2	-3	0.0
COc1cc(CC(=O)Nc2ccc3c(c2)CCC3)cc(OC)c1OC
    -22	8	0.9	5.0	0.2	0	-10	6.1
COC(=O)c1ccc(C(=O)OC)c(NC(=O)CCc2ccc(C)o2)c1
    -1	-16	6.9	-18	0.1	0	-3	2.1
Cc1cc(NS(=O)(=O)c2ccc(NC(=O)CCN3C(=O)c4ccccc4C3=O)cc2)no1
    -5	-2	-0.6	-2.1	0.2	7	-7	-5.0
CCN(CC)S(=O)(=O)c1ccc(OC)c(NC(=O)c2ccc(OC)c([N+](=O)[O-])c2)c1
    13	3	-1.8	5.8	-0.7	2	1	1.6
CCC1OC2(C)OC(=N)C1(C#N)C(C#N)(C#N)C2c1ccccc1 (configuration not stated)
    -9	-4	33*	-88	0.3	6	1	4.9
COc1cc2c(cc1OC)-c1cc(OCCN3CCOCC3)nc(=O)n1CC2
    0	2	u	i	1.1	-88	-3	2.9
NC(=O)COC(=O)CNC(=O)c1sc2ccccc2c1Cl
    -2	-1	-5.1	3.3	1.6	-3	-8	2.6
Cc1ccc(C(=O)COC(=O)c2cccc(N3C(=O)c4c(C)nc5ccccc5c4C3=O)c2)cc1C
    -10	17	-4.0	2.0	0.9	7	2	15*
COc1ccc(N2C(N)=C(C#N)C(c3cccnc3)C3=C2CC(C)(C)CC3=O)cc1 (configuration not stated)
    -6	4	-1.9	2.6	-0.5	-8	-11	1.7
Nc1c(C(=O)NCc2ccccc2)sc2nc(N3CCOCC3)c3c(c12)CCCC3
    29	36	1.4	i	0.1	15	-5	-1.6
O=C(CSc1nnc(-c2ccco2)n1-c1ccccc1)NCCc1ccccc1
    14	7	0.6	-0.9	0.5	-10	-2	2.9
CCN(CC)c1nc(N)c2c(N)nc3c(c2c1C#N)CC(c1ccccc1)O3 (configuration not stated)
    -4	64	2.4	-172	-0.3	23	2	5.3
C#CCOc1ccc2ccccc2c1/C=C(/C#N)c1ccc(C(=O)O)cc1
    -11	11	-9.8	2.3	-0.1	6	-4	-0.1
CCOC(=O)N1CCN(C(=O)c2ccc3c(c2)sc2nc(-c4ccc(OC)cc4)cn23)CC1
    16	16	4.7	-6.1	2.1	5	11	1.5
O=C(O)c1ccc(S(=O)(=O)/N=C2\C=C(Nc3ccccc3F)C(=O)c3ccccc32)cc1
    28	-7	-3.6	93*	-2.0	24	99*	6.1
CCOc1ccc(N(CC(=O)Nc2ccc(C)c(F)c2)C2=NC3CS(=O)(=O)CC3S2)cc1 (configuration not stated)
    4	-9	3.4	-2.0	-1.2	1	-17	-1.6
CCN1C(=O)[C@H]2[C@@H](c3ccc(-c4ccc(Cl)c(Cl)c4)cc3)N[C@@](CC(C)C)(C(=O)OC)[C@H]2C1=O
    8	4	-2.7	1.0	1.3	1	-4	-3.4
CCCn1c(=N)n(CCOc2ccc(OC)cc2)c2ccccc21
    10	-2	-1.4	0.3	3.1	4	16	3.4
Cn1ncc(Cl)c1C(=O)NCc1cc(C(C)(C)C)n[nH]1
    -7	1	4.0	-0.3	0.9	18	-2	-2.2
CC(C)C1Oc2ccccc2C(=O)N(CC(=O)c2ccc3c(c2)OCCO3)C1=O (configuration not stated)
    -13	-1	0.0	2.5	-4.4	9	3	-2.7
O=S(=O)(O)c1nc2ccccc2n1CCOc1ccccc1
    -22	-5	0.1	1.5	-0.3	-2	-5	-3.2
Cc1ccnc(NS(=O)(=O)c2ccc(NC(=O)c3cc(=O)c4ccccc4o3)cc2)n1
    -12	0	19	9.7	0.0	2	-7	-1.7
CCN(C(=O)Cn1cnc2cc([N+](=O)[O-])ccc2c1=O)C1CCS(=O)(=O)C1 (configuration not stated)
    6	-6	14*	-1.8	0.7	-3	-5	4.7
Cc1cc(Cl)c(S(=O)(=O)N2CCN(c3cccc(C)c3C)CC2)cc1OCC(N)=O
    31	60	5.0	5.3	1.3	-1	-8	5.9
COCCCNC(=S)N1CCN(S(C)(=O)=O)CC1
    -4	-17	-1.3	1.9	0.4	6	-13	3.3
O=C(c1ccco1)N1CCn2c1nc1ccccc12
    -5	-3	-2.7	4.2	-5.7	-3	12	-6.9
O=C(O)/C(=C\c1cn(-c2ccccc2)nc1-c1ccc(Cl)cc1)NC(=O)c1ccccc1
    -9	21	-1.6	1.7	-0.1	-5	-1	11
COc1ccc(C(=O)/C=C/Nc2c(C)n(C)n(-c3ccccc3)c2=O)cc1OC
    17	1	1.3	4.0	0.7	-1	0	-5.0
O=S(=O)(c1ccc(F)cc1)N1CCN(c2ccc(F)cc2)CC1
    -1	-4	-1.0	2.9	-0.5	5	x	-5.6
CCC1CCCCN1C(=O)CSc1nnc2nc(C)cc(C)n12 (configuration not stated)
    x	x	x	-2.7	0.4	-11	-1	6.5
CCOCC(O)CS(=O)(=O)c1ccccn1 (configuration not stated)
    -9	0	-1.3	1.9	0.9	6	-9	-8.3
COc1cc(NS(=O)(=O)c2cccc3nsnc23)cc(OC)c1
    0	38	-2.4	4.3	-1.0	1	-4	-5.5
O=C(NCc1ccccc1)c1cc(-c2ccncc2)nc2ccc(S(=O)(=O)N3CCOCC3)cc12
    1	-10	0.4	5.1	0.3	-1	6	-0.9
c1ccc(-c2cnc(SCCN3CCOCC3)n2CC2CCCO2)cc1 (configuration not stated)
    6	x	1.2	1.8	0.0	-2	-5	-9.5
N#C/C(=C\c1cn(-c2ccccc2)nc1-c1ccccc1)S(=O)(=O)c1ccccc1
    -14	-3	-4.3	-89	0.4	-28	4	3.8
FC(F)(F)c1ccc(NCc2ccccn2)nc1
    -6	-2	4.1	1.6	-1.7	-7	-3	-2.3
O=C(Nc1ccc(Cl)cc1)Nc1ccccc1C(=O)NCc1ccco1
    -104	-1	1.0	-12	-8.8	-3	x	-2.0
CC(=O)c1cccc(N/C=C\C(=O)c2ccc(C)cc2)c1
    -10	-8	0.9	2.3	-1.8	9	-9	1.8
Cc1ccc2nc(-c3cccc(N)c3)[nH]c2c1
    -6	2	-4.3	-72	0.7	12	23	-0.9
CC(=O)Cc1nsc(NC(=O)c2csc3c2CCCC3)n1
    -8	5	-1.6	2.2	-1.4	3	5	5.5
C=CCOc1c(Br)cc(CNCCCN2CCOCC2)cc1OC
    58*	4	3.7	-1.3	-1.1	-3	-6	-1.2
O=c1nc(Nc2cccc(Cl)c2)oc2cc(Cl)oc(=O)c12
    -8	2	8.8	x	-6.8	39	-7	0.3
Cn1cccc1C(=O)NC1CCCCC1
    -12	34	0.2	-3.1	-0.8	-1	-3	4.7
CC1CC(=O)NN1C(=O)c1ccccc1 (configuration not stated)
    -11	3	0.1	4.1	0.2	-2	1	1.9
CO/N=C/CC(=O)Nc1ccc(F)cc1F
    -14	-6	5.0	x	0.6	0	0	-2.1
CCc1nnc(NC(=O)Cc2ccc(OC)cc2)s1
    -2	13	5.5	3.1	-0.6	-2	-3	0.4
Cc1ccc(S(=O)(=O)c2nc(S(=O)(=O)c3ccc(C)cc3)c(NCc3ccco3)s2)cc1
    26	-2	2.0	0.2	0.6	-15	-15	-1.2
O=C(c1ccc(CN2CCOCC2)cc1)N1CCN(c2ccccc2)CC1
    -5	0	0.4	2.6	1.3	-1	-2	-2.5
Cc1cc(C)nc(NC(=O)NS(=O)(=O)N2CCCCCC2)n1
    x	1	-1.2	2.1	0.4	-1	0	-0.1
Cc1ccc(S(=O)(=O)N(C)C)cc1NC(=O)COC(=O)c1c(C)noc1C
    -9	-5	-3.9	x	0.5	-3	-4	x
CCCCC(C(=O)NC(C)(C)C)N(Cc1ccco1)C(=O)c1snc(C(N)=O)c1N (configuration not stated)
    -10	5	-2.6	-28	2.0	-5	1	2.1
Cc1[nH]c2ccccc2c1CCN(Cc1cccs1)C(=S)NC(C)(C)C
    26	-5	6.9	10	-0.5	0	x	0.0
CCS(=O)(=O)N(CC(=O)Nc1cccc2ccccc12)c1ccc(OC)cc1
    x	x	x	-0.2	1.4	0	0	-2.0
Cc1cccc(-n2c(SCC(=O)O)nc3sc4c(c3c2=O)CCCC4)c1
    3	38	3.1	6.5	0.7	-1	-6	-1.6
